# Screens from PubChem.
# CDC25B CDK2 inh = primary biochemical HTRF screen for blockers of M-phase inducer phosphatase 2 binding to CDK2/cyclin A; P30305+P24941; HTRF CDC25B-CDK2/CyclinA binding, anti-His/anti-Flag; active compounds read high; z-score (no concentration beside the values); actives 0.72% (n = 94,000); AID 1259370, 2018;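 further: score is relative to mean and SD of negative controls; strong numbers were not always called active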
# HIV TAR-Tat = TAR RNA-Tat peptide displacers, HIV-1, primary screen, biochemical, FRET, FAM/TAMRA-labeled Tat; actives 0.6% (n = 100,000); z-score (no concentration beside the values); AID 1259389, 2018; HIV-1 TAR RNA, Tat peptide displacement FRET; active compounds read high;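 further: score is relative to mean and SD of negative controls; some compounds called inactive have numbers as strong as hits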
# * hit, by the source's call; . = no result given.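 How the source made its calls: active means z-score from 3 up in half or more of its runs; inactive means the rest.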
smiles	CDC25B CDK2 inh	HIV TAR-Tat
CN1CCc2c(sc3c2C(=O)NC(c2cc(Br)ccc2O)N3)C1 (stereo not drawn)	-1.1	0.81
CCc1nn2c(=O)cc(CSc3ncn[nH]3)nc2s1	.	0.28
O=C(Nc1sc2c(c1C(=O)NCc1ccccc1)CCCC2)c1cc(=O)c2ccccc2o1	-0.77	-3.8
COc1ccc(CN2C(=O)Nc3ccccc3S2(=O)=O)cc1	.	2.2
CCOC(=O)N1CCN(C(=O)c2cc3cc4ccc(OC)cc4nc3o2)CC1	.	-1.1
CCCCc1c(C)c(C#N)c2[nH]c3ccccc3n2c1=O	1.8	0.46
O=C(NC1CCCCC1)c1ccc(N2C(=O)CCS2(=O)=O)cc1Cl	-2	1
O=C(NNC(=S)Nc1cccc(C(F)(F)F)c1)c1cccnc1	-1.4	.
CSc1ccc(CN2C(=O)c3ccncc3C2=O)cc1	.	0.46
CCCCc1nc(SCC(=O)NC(C)(C)C)c2c(=O)n(C)c(=O)n(C)c2n1	.	0.9
CC1CCCC(NC(=O)C2CCCN2c2nnc(N3CCCC3=O)s2)C1C (stereo not drawn)	-1.6	2.6
Cc1cc(C)cc(Oc2ncnc3sc(C)c(C)c23)c1	.	1.5
CCCCNC(=O)c1cc2n(n1)CC(C)(C(=O)NC1CCCCC1)N(C)C2=O (stereo not drawn)	.	1.3
Cc1cc(=O)n2[nH]c(NC(=O)C(C)(C)C)nc2n1	-1.6	0.52
CCCCNS(=O)(=O)c1cc(Br)cnc1N	-1.1	1.1
CN1C(=O)C(C)(C)c2cc(S(=O)(=O)N3CCC(CN4CCc5ccccc5C4)CC3)ccc21	.	1.6
O=c1c2ccccc2n2c(-c3ccc(Br)cc3)nnc2n1Cc1ccccc1	-0.84	0.83
CC(=O)N1CCOc2ccc(S(=O)(=O)Nc3cc(F)ccc3F)cc21	0.14	0.19
Cc1cc2n(n1)CCCN2C(=O)CCC(=O)NCCc1cccs1	.	2
CCSc1nnc(NC(=O)CSc2nnc(Cn3c(=O)sc4ccccc43)n2C)s1	-0.19	.
c1ccc(OCCn2c(N3CCOCC3)nc3ccccc32)cc1	-2.4	0.72
Cc1cscc1S(=O)(=O)c1ccc(Cl)cc1	0.02	.
COc1ccc(C2=NN(S(=O)(=O)c3ccccc3)C(c3ccccc3F)C2)cc1OC (stereo not drawn)	-0.07	.
O=C(CCc1nnc2ccc(N3CCCC3)nn12)NCc1ccc2c(c1)OCO2	.	0.52
COCCOC(=O)C1=C(C)NC2=C(C(=O)CCC2)C1c1ccc(C(=O)OC)cc1 (stereo not drawn)	-0.76	0.71
COc1ccc(C2C3=C(CCCC3=O)Nc3nc(SCc4ccc(F)cc4)nn32)cc1 (stereo not drawn)	-1.4	0.42
COc1ccc(S(=O)(=O)[C@H]2CS(=O)(=O)C[C@@H]2NC(C)C)cc1	-1.8	1.3
CC(C)Cc1cc2c(s1)SCC(=O)N2CC(=O)NCc1ccco1	.	0.46
CC1CC[C@@]2(OC1)O[C@H]1CC3C4CC[C@@H]5C[C@@H](O)CC[C@]5(C)C4CC[C@]3(C)[C@H]1[C@@H]2C (stereo partly drawn)	.	3
COC(=O)c1c(NC(=O)C2CSC(c3ccncc3)=N2)sc(C)c1C (stereo not drawn)	.	1.5
CCC(CN1CCOCC1)NS(=O)(=O)c1cc2[nH]c3c(c2cc1C)C(=O)CC(C)(C)C3 (stereo not drawn)	.	1.9
CC(C)CCNc1ncnc2c1cnn2-c1cccc(Cl)c1	.	0.88
CCN1CCCC1CNC(=O)C1=C(C)C(=O)OC12CCN(S(C)(=O)=O)CC2 (stereo not drawn)	.	0.98
O=C(c1ccccc1)N1CCN(CCOc2ccccc2)CC1	0.68	.
CCNC(=O)/C(C#N)=C/c1ccc([N+](=O)[O-])s1	-1.9	.
CCOc1cc(C2c3c(oc4ccc(F)cc4c3=O)C(=O)N2Cc2ccco2)ccc1O (stereo not drawn)	-0.88	1.2
O=C(Nc1ccc(F)c(Cl)c1)NC(c1ccccc1)c1nnc(-c2ccccc2)o1 (stereo not drawn)	.	1.2
COc1cc(NC(=O)CCS(=O)(=O)c2ccc3c(c2)NC(=O)CO3)cc(OC)c1	.	0.4
CCOC(=O)C1CCN(C(=O)CSc2nnc(-c3ccoc3C)o2)CC1	-1.4	1.8
COC(=O)c1ccc2c3c(onc13)-c1ccccc1C2=O	-2	-6.7
Cc1c(C(=O)N2CCC(C)CC2)c(S(=O)(=O)N2CCc3ccccc3C2)c(C)n1C	.	2.2
Cc1ccc(S(=O)(=O)NCCc2nnc3ccc(SCc4cccc(C)c4)nn23)cc1	.	1.1
COc1cccc2c(=O)c(NC(=O)NCCN3CCOCC3)c[nH]c12	-3.6	-0.39
O=C(NC1COc2ccccc2C1)N1CCN(c2ccccc2F)CC1 (stereo not drawn)	.	1.9
CCc1cc2c(Nc3ccccc3Cl)ncnc2s1	.	-0.97

# Going on with the list.
Compound | CDC25B CDK2 inh | HIV TAR-Tat
CNS(=O)(=O)c1cc(S(=O)(=O)NC)c2cccc3c2c1NC3=O | 0.66 | 0.43
COC(=O)c1sc2ccccc2c1OC(=O)c1cccs1 | -0.55 | .
C=CCn1c(=O)c2c(nc3n2CCN3c2cc(C)cc(C)c2)n(C)c1=O | . | 2
CCOC(=O)Oc1ccc2c(=O)c(Oc3cc(C)cc(C)c3)coc2c1 | -1.6 | 2.2
c1ccc(OCCCSCc2nc3ccccc3[nH]2)cc1 | -1.5 | 2.7
Cc1ccc(S(=O)(=O)OC2CC3CC2C([N+](=O)[O-])C3)cc1 (stereo not drawn) | -2.5 | .
Cc1nc(-c2csc(S(=O)(=O)N3CCN(c4ccc(F)cc4)CC3)c2)no1 | . | 0.79
CCn1c(C(=O)N2CCC(C(=O)NCCC3=CCCCC3)CC2)cc2sccc21 | -1.5 | .
CCOc1ccccc1-c1nc(-c2cccc(OC)c2)no1 | -3.8 | 2.5
CCCCN(CCS(=O)(=O)N1CCNCC1)S(=O)(=O)c1ccc(Br)cc1 | . | 2.7
COc1ccc(CNc2ncnc3c2nc2n3CCCCC2)cc1 | . | 1.3
COc1ccc(-n2ccc(=O)c(C(=O)Nc3ccc(Cl)cc3)n2)cc1 | 1.1 | 0.94
COc1ccc(N2CCN(C(=O)c3nc(SC)ncc3Cl)CC2)cc1 | -2 | 2.8
O=C(c1ccc(F)cc1)c1c[nH]c2c(F)cccc2c1=O | -0.56 | .
Cc1nn(CC(=O)NC(C)C)c(=O)c2cc3ccccc3n12 | -0.15 | 0.35
COc1ccc(NC(=O)OCCn2c([N+](=O)[O-])cnc2C)cc1 | -2 | 0.27

# Single records, as listed above. Screens in order: CDC25B CDK2 inh	HIV TAR-Tat
# O=C(c1ccc(F)cc1)c1c[nH]c2c(F)cccc2c1=O in the list: -0.56	.
# Cc1nn(CC(=O)NC(C)C)c(=O)c2cc3ccccc3n12 in the list: -0.15	0.35
# COc1ccc(NC(=O)OCCn2c([N+](=O)[O-])cnc2C)cc1 in the list: -2	0.27
# COc1ccc(N2CCN(C(=O)c3nc(SC)ncc3Cl)CC2)cc1 in the list: -2	2.8

# Carrying on.
Compound | CDC25B CDK2 inh | HIV TAR-Tat
COc1ccc(-c2nc3c4ccccc4ccn3c2CN2CCCCC2)cc1 | -2 | .
O=C(c1ccco1)N1CCCCC1CCN1CCCC1 (stereo not drawn) | -1.9 | 1.9
COc1ccc(C2C(C#N)=C(N)Oc3n[nH]c(C)c32)cc1 (stereo not drawn) | -1.2 | -0.23
Cc1ccc(S(=O)(=O)n2nc(C)c(S(=O)(=O)N3CCC(C)CC3)c2C)cc1 | . | 0.94
Cc1cc2ccccc2n1-c1ccc(C(=O)N2CCN(c3ccccn3)CC2)s1 | . | 1.5
CCOC(=O)c1c(C)oc2c1c(CN1CCCC(C(=O)OCC)C1)c(O)c1ccccc12 (stereo not drawn) | -0.68 | .
CCOC(=O)c1sc(N)c(C#N)c1C | -0.29 | 0.92
O=c1ccc(-c2ccc(S(=O)(=O)N3CCN(c4ccccc4)CC3)o2)n[nH]1 | . | 2
Cc1ccc(C)n1CCN1CCN(C(=O)c2[nH]nc3c2CCc2ccccc2-3)CC1 | -1.7 | -1.2
Cc1nn(S(=O)(=O)c2ccc(C(C)C)cc2)c(C)c1S(=O)(=O)N(C)c1ccccc1 | . | 0.05
CC(=O)N1c2c(cc(Br)cc2S(=O)(=O)N2CCC(C)CC2)CC1C (stereo not drawn) | -0.43 | .
Nc1ccc(CN2CCOCC2)cc1 | . | 2.1
O=C(NCc1ccco1)c1cc2nc(-c3ccc(Br)cc3)cc(C(F)(F)F)n2n1 | . | 0.48
CCCCSc1nc2n(n1)C(c1ccccc1OC)C1=C(CC(C)(C)CC1=O)N2 (stereo not drawn) | -1.3 | 2.1
COc1ccc(C(=O)Cn2cnc3c(oc4ccccc43)c2=O)cc1 | . | 1
COc1ccccc1NC(=O)CSCc1cc(=O)n2c3c(sc2n1)CCCC3 | . | -0.13

# 2 entries from above, with values under each structure:
# Results follow in this order: CDC25B CDK2 inh	HIV TAR-Tat
O=C(c1ccccc1)N1CCN(CCOc2ccccc2)CC1
  0.68	.
CCNC(=O)/C(C#N)=C/c1ccc([N+](=O)[O-])s1
  -1.9	.

# More compounds follow.
Compound | CDC25B CDK2 inh | HIV TAR-Tat
O=c1c(N2CCc3ccccc32)csc2ccc(F)cc12 | . | -3.4
CN1C(C(=O)c2ccccc2)=C(OC(=O)COc2ccccc2)c2ccccc2S1(=O)=O | 0.13 | 1.4
CCOC(=O)C1(C(=O)O)NC(=O)CC1c1ccccc1 (stereo not drawn) | -0.08 | .
CCCCN(C)CCNS(=O)(=O)c1cc(Br)cc2c1N(C(=O)CC)CC2 | 0.85 | .
COc1ccc(Cn2c(CO)cnc2SCc2c(F)cccc2Cl)cc1 | . | 1.3
O=C1C2CC=CCC2C(=O)N1c1ccc(-c2nc3ccc(N4C(=O)C5CC=CCC5C4=O)cc3[nH]2)cc1 (stereo not drawn) | -0.92 | .
CC(=O)N1c2ccc(S(=O)(=O)N3CCCCC3)cc2CC1C(=O)Nc1cc(C)on1 (stereo not drawn) | . | 1.8
O=C(Nc1ccc(-n2ccc(C(F)(F)F)n2)cc1)Nc1ccc2c(c1)CCO2 | -1.8 | .
Cc1cc(NC(=O)Nc2ccc(Cl)cc2)n(C)n1 | -0.05 | .
CSc1ccc(C(Nc2ccccn2)c2c(C)[nH]c3ccccc23)cc1 (stereo not drawn) | -0.11 | .
Cc1csc(NC(=O)CN2C(=O)c3ccccc3C2=O)c1C(N)=O | -4.2 | .
CN(CC(=O)N1CCCC1)c1nnc(N2CCCC2=O)s1 | -1.3 | 2.4
CC(C)(C)C(=O)NC(=O)Nc1cc(C(F)(F)F)ccc1Cl | -2.5 | .
CCCCC(=O)OC1=C(C(=O)c2ccccc2)N(C)S(=O)(=O)c2ccccc21 | -1.2 | 1.5
CCCC(=O)N(c1ccc2oc(=O)sc2c1)S(=O)(=O)c1ccc(C(=O)O)cc1 | -3.6 | 2.6
Cc1cc(C(=O)C(=O)Nc2nnc(-c3cccs3)s2)c(C)n1-c1ccccc1 | -2.2 | 1.9
O=C(NCCCN1CCOCC1)c1ccc2c(c1)N(Cc1ccccc1)C(=O)CS2 | -3 | .
Cc1nnc(SCC2=NN(c3nc4ccccc4[nH]3)C(=O)C2)s1 | -1.8 | 1.1
COc1cc(CNC(=O)CCCC/C=C\C(C)C)ccc1O | . | 0.98
CC(C(=O)c1ccc(Cl)cc1)C1(O)C(=O)Nc2ccccc21 (stereo not drawn) | . | 1.4
O=c1[nH]c2ccc(S(=O)(=O)N3CCN(c4ccccc4)CC3)cc2o1 | -1.6 | .
COc1cc(NS(=O)(=O)c2ccc3c(c2)CC(=O)N3)cc(OC)c1 | -0.18 | 0.13
CC1CCN(C(=O)Cn2ncc3c2-c2ccccc2OC3)CC1 | -2 | -0.25
CC(c1ccccc1)n1c(SCC(=O)N2CCOCC2)n[nH]c1=O (stereo not drawn) | -3.5 | .

# Six compounds picked at random from those above:
Compound | CDC25B CDK2 inh | HIV TAR-Tat
O=c1[nH]c2ccc(S(=O)(=O)N3CCN(c4ccccc4)CC3)cc2o1 | -1.6 | .
COc1cc(NS(=O)(=O)c2ccc3c(c2)CC(=O)N3)cc(OC)c1 | -0.18 | 0.13
COc1cc(CNC(=O)CCCC/C=C\C(C)C)ccc1O | . | 0.98
CC(C(=O)c1ccc(Cl)cc1)C1(O)C(=O)Nc2ccccc21 (stereo not drawn) | . | 1.4
O=C(NCCCN1CCOCC1)c1ccc2c(c1)N(Cc1ccccc1)C(=O)CS2 | -3 | .
CC1CCN(C(=O)Cn2ncc3c2-c2ccccc2OC3)CC1 | -2 | -0.25

# Continued.
Compound | CDC25B CDK2 inh | HIV TAR-Tat
Cc1ccc(CNS(=O)(=O)c2ccc(-c3coc(C)n3)cc2)cc1 | . | 0.49
CCN(CC)c1cc2c(cc1F)c(=O)c(S(=O)(=O)c1cc(C)ccc1C)cn2CC | . | 0.01
O=C1CSc2ccc(S(=O)(=O)N3CCC(C(=O)NCc4ccco4)CC3)cc2N1 | . | 2
Cc1cc(F)ccc1NC(=O)c1sc2nc(-c3ccncc3)ccc2c1N | -0.53 | 0.34
S=c1[nH]cc(-c2cccc(Cl)c2)o1 | -2 | 1.2
CC1CCC(NC(=O)Cn2c(=O)oc3cc(S(=O)(=O)N4CCCC4)ccc32)CC1 (stereo not drawn) | -1.8 | 2.3
CC(C)(C)c1csc(=Nc2ccc(F)cc2F)o1 | -1.8 | .
O=c1cc(CSc2n[nH]c(-c3ccccc3)n2)nc2nc[nH]n12 | . | 2.4
CC(=O)N1c2c(cc(Br)cc2S(=O)(=O)NCc2ccc3c(c2)OCO3)CC1C (stereo not drawn) | -0.32 | .
Cc1ccc(-c2ccc(=O)[nH]n2)cc1S(=O)(=O)NC(C)(C)C | -1.1 | 2
O=S(=O)(c1ccc(Br)cc1)N1CCCC(c2nc(-c3ccc(F)cc3)no2)C1 (stereo not drawn) | . | 0.59
Fc1ccc(Nc2ncnc3onc(-c4cc(F)cc(F)c4)c23)cc1 | . | 0.42
